# Mtb MbtI inh: MbtI salicylate synthase inhibitors, primary screen, biochemical, fluorescence intensity; P9WFX0; purified MbtI enzyme, fluorescence intensity read-out; 0.89% of 100,000 active; inhibition, %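 (about 17 µg/mL by stock and volumes)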;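 active = above 50% in both replicates, above 80% if mildly self-fluorescent; inactive = the rest, strongly fluorescent compounds included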;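 note: 0% = mean of negative and 100% = mean of positive controls; one replicate is shown; some compounds called inactive have numbers as strong as hits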
# Target sequence (P9WFX0 whole entry, looked up): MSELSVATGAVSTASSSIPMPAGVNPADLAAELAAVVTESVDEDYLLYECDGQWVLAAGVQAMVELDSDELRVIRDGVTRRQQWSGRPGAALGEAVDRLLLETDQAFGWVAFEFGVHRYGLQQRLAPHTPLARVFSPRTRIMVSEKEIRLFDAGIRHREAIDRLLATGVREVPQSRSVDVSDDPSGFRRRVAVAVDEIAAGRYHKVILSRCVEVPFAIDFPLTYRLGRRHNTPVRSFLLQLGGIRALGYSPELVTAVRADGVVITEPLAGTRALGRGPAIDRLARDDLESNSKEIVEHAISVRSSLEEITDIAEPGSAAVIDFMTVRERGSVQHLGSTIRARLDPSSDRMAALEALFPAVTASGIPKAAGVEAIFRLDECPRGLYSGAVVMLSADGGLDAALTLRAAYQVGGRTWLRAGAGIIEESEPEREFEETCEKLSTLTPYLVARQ
# Mtb MenB inh: M. tuberculosis MenB inhibitors, primary screen, biochemical, absorbance. 1,4-dihydroxy-2-naphthoyl-CoA synthase (Mycobacterium tuberculosis (strain ATCC 25618 / …. 0.43% of 100,000 active. MenB enzyme assay, absorbance read-out; some hits fall short of the stated cut. inhibition, %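 (about 12 µg/mL by stock and volumes)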;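 active = mean of two replicates above 30%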;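 note: 0% = no compound and 100% = wells with inactive enzyme; the first replicate is given; strong numbers were not always called active; inactives centre near -10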
# PV pol inh: poliovirus RdRp elongation inhibitors, primary screen, biochemical, fluorescence polarization, total intensity | Genome polyprotein (Poliovirus type 1 (strain Mahoney)), P03300 | poliovirus polymerase elongation; stronger effect = lower value | % elongation, % (compound at 16.7 µg/mL) | 0.66% of 150,000 active | AID 588519, 2011; in the data active = % elongation below about 90%; note: some results filed as inactive read as strong as hits
# Target sequence (P03300 1749-2209 limits assumed): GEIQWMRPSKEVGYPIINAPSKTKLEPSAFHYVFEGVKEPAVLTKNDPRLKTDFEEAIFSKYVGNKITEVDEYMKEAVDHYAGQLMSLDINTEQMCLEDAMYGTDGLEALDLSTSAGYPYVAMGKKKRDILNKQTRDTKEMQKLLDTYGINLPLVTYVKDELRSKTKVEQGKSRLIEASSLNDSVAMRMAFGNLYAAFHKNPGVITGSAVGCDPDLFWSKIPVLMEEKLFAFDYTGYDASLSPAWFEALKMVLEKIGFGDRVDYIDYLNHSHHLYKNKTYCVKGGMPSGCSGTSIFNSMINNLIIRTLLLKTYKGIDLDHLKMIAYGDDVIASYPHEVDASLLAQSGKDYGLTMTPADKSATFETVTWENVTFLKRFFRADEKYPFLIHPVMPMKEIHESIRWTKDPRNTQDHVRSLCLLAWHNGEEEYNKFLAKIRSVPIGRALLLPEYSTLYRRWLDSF
# PV pol inh intensity: further read-out of PV pol inh, marked with its call; % elongation; measured here: total intensity read-out; formula for this scale not given here;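 total fluorescence in place of polarization; lower means less elongation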
# * = called active by the depositor; x = no result given; & = joins results of further samples. Rows are unselected, and some 1.7% of all compounds hit somewhere here.
# Preview:
no.	structure	Mtb MbtI inh	Mtb MenB inh
1	Cc1nn(S(=O)(=O)N(C)C)c(C)c1C	-24	-54
2	O=C(O)Cc1c(C(=O)O)[nH]c2ccccc12	x	5
3	Cc1nn(CC(O)Cn2c3c(c4ccccc42)CCN(C)C3=O)c(C)c1Br (configuration not stated)	117	-16
4	COc1cccc(-n2ccn(CC(=O)NCCc3ccccc3)c(=O)c2=O)c1	-6	10
5	CC1C/C(=N\NC(N)=O)CC(C)(C)C1 (configuration not stated)	6	10
6	O=C(O)C1c2ccccc2-c2ccccc21	9	x
7	O=C(Nc1ccc2c(c1)S(=O)(=O)c1cc(NC(=O)C3CCCCC3)ccc1-2)C1CCCCC1	-90	-6

no.	PV pol inh	PV pol inh intensity
1	104	102
2	94	97
3	104	107
4	102	103
5	100	96
6	101	98
7	100	102

# Main list, previewed entries included:
no.	structure	Mtb MbtI inh	Mtb MenB inh
1	Cc1nn(S(=O)(=O)N(C)C)c(C)c1C	-24	-54
2	O=C(O)Cc1c(C(=O)O)[nH]c2ccccc12	x	5
3	Cc1nn(CC(O)Cn2c3c(c4ccccc42)CCN(C)C3=O)c(C)c1Br (configuration not stated)	117	-16
4	COc1cccc(-n2ccn(CC(=O)NCCc3ccccc3)c(=O)c2=O)c1	-6	10
5	CC1C/C(=N\NC(N)=O)CC(C)(C)C1 (configuration not stated)	6	10
6	O=C(O)C1c2ccccc2-c2ccccc21	9	x
7	O=C(Nc1ccc2c(c1)S(=O)(=O)c1cc(NC(=O)C3CCCCC3)ccc1-2)C1CCCCC1	-90	-6
8	COC(=O)c1cc2c(cc1NC(=O)C1CCCN(S(=O)(=O)N3CCOCC3)C1)OCO2 (configuration not stated)	-8	-17
9	O=c1[nH]nc(-c2ccc(F)cc2)o1	95	-20
10	CC1(C)N=C(N)N=C(N)N1c1ccccc1	-202	-22
11	C=C(C)C1CC=C(C)/C(=N/NC(=O)c2ccncc2)C1 (configuration not stated)	-5	-26
12	Cc1nc2ccc(Nc3nc4cc(Cl)ccc4o3)cc2s1	-9	-29
13	N#Cc1cnc(Sc2nnc(-c3ccncc3)n2-c2ccccc2)nc1N	3	25
14	CN=C(Nc1ccc(C(=O)NC)cc1)c1ccccc1	2	-21
15	CCCC(=O)Nn1c(=O)[nH]c2ccccc2c1=O	-225	-19

no.	PV pol inh	PV pol inh intensity
1	104	102
2	94	97
3	104	107
4	102	103
5	100	96
6	101	98
7	100	102
8	104	102
9	101	107
10	102	109
11	104	101
12	102	95
13	109	100
14	108	104
15	100	101

# Remaining list, next part:
no.	structure	Mtb MbtI inh	Mtb MenB inh
16	NC(=O)COC(=O)CCc1nc2ccccc2c(=O)[nH]1	-2	-15
17	Cc1c(C#N)sc(C#N)c1C	-12	0
18	CC(=O)Nc1ncc(Cc2ccccc2F)s1	0	-6
19	COc1ccc(CN(C)C(=O)[C@H](Cc2ccccc2)NC(=O)c2ccco2)c(OC)c1	-3	-21
20	CN(C)CC/C=C1/c2ccccc2Sc2ccc(Cl)cc21	-24	4
21	COC(=O)c1cc2c(s1)CN(C1CCCc3ccccc31)C2 (configuration not stated)	64	-16
22	Nc1ccc(S(=O)(=O)NCC(F)(F)F)cc1	19	6
23	CCN1CCN(C(=O)C(C)NS(=O)(=O)c2ccc(OC)c(C)c2)CC1 (configuration not stated)	-11	-18
24	CC1(C)CC(=O)c2sc(Nc3nc4c(F)cccc4s3)nc2C1	-21	-15
25	Cc1cc(C(=O)OC(C)C(=O)Nc2ccc(Cl)cc2Cl)c(C)o1 (configuration not stated)	-2	x
26	NC(=O)C1CCN(c2csc3ccccc3c2=O)CC1	9	-214
27	CC(=O)N1N=C(C)CC1C1C(C)C=C(C)CC1C (configuration not stated)	2	-52
28	CC(C)(C)c1cc(C(=O)Oc2cccc(C(F)(F)F)c2)n(Cc2ccccc2)n1	1	-18
29	COc1cccc2c1c(NC(=O)CCC(=O)O)nn2C	0	-4
30	CCCCn1c(N)c(N(CCOC)C(=O)CN2CCCc3cc(C)ccc32)c(=O)[nH]c1=O	-3	-3

no.	PV pol inh	PV pol inh intensity
16	114	106
17	101	103
18	100	102
19	107	102
20	101	102
21	103	106
22	104	101
23	105	104
24	103	101
25	103	99
26	100	102
27	102	100
28	106	107
29	101	106
30	x	x

# Arranged by count of non-hydrogen atoms (lowest first): some entries from above
no.	structure	Mtb MbtI inh	Mtb MenB inh
26	NC(=O)C1CCN(c2csc3ccccc3c2=O)CC1	9	-214
24	CC1(C)CC(=O)c2sc(Nc3nc4c(F)cccc4s3)nc2C1	-21	-15
30	CCCCn1c(N)c(N(CCOC)C(=O)CN2CCCc3cc(C)ccc32)c(=O)[nH]c1=O	-3	-3

no.	PV pol inh	PV pol inh intensity
26	100	102
24	103	101
30	x	x

# An excerpt of these results, with bars between the fields.
entry | SMILES | Mtb MbtI inh | Mtb MenB inh | PV pol inh | PV pol inh intensity
17 | Cc1c(C#N)sc(C#N)c1C | -12 | 0 | 101 | 103
29 | COc1cccc2c1c(NC(=O)CCC(=O)O)nn2C | 0 | -4 | 101 | 106

# Later entries:
no.	structure	Mtb MbtI inh	Mtb MenB inh
31	CN(C)CCSc1nc2ccccc2s1	40	x
32	O=c1cc(CSc2nnc(-c3ccc4c(c3)OCO4)o2)nc2scc(-c3ccccc3)n12	12	16
33	COc1ccc(P(=O)(CO)c2ccc(OC)cc2)cc1	-27	-5
34	COc1ccccc1N1CCN(C(=O)C(CC(C)C)NC(=O)C2CCC(C)CC2)CC1 (configuration not stated)	-10	-21
35	Cc1cc(S(=O)(=O)NC2CCCCC2)ccc1OCC(=O)Nc1ccc2c(c1)OCO2	-13	-5
36	O=C1CCC(C(=O)Nc2cc(F)cc(F)c2)=NN1	-5	12
37	CN1CCSC1=Nc1ccc(OC(F)F)cc1	2	-2
38	CCOc1ccc(N2C(=O)/C(=C/c3ccccc3)N(C)C2=S)cc1	-9	-12
39	Clc1ccc(N2CCN(C3=Cc4ccccc4C3)CC2)cc1	0	9
40	O=S(=O)(Nc1ccc(I)cc1)N1CCCCC1	1	-9
41	CCCC1CCc2c(sc(NC(=O)OC)c2C#N)C1 (configuration not stated)	-1	-24
42	O=c1oc(=O)c2nc3c(=O)oc(=O)c3cc12	-6	-54
43	COC(=O)C(=C/C=C/c1cccs1)C(=O)OC	16	-124
44	CS(=O)(=O)Cc1cccc(C(=O)Nc2sccc2C#N)c1	8	-30
45	Cn1c(-[n+]2ccccc2)c(/C=N/NC(N)=S)sc1=O	23	-54

no.	PV pol inh	PV pol inh intensity
31	100	105
32	103	108
33	99	98
34	102	102
35	101	102
36	108	109
37	101	103
38	100	106
39	106	108
40	102	111
41	99	102
42	101	104
43	103	98
44	137	162
45	103	101

# Following part.
no.	structure	Mtb MbtI inh	Mtb MenB inh
46	Cc1oc(-n2c(C)cc(/C=C(\C#N)c3ccc4c(c3)OCO4)c2C)c(C#N)c1C	42	-23
47	CSc1ccc(Cl)c(C(=O)OCC(=O)c2ccccc2)c1	-8	x
48	COc1ccccc1/C=C/C(=O)Nc1nc2ccccc2s1	-97	x
49	CN1C(=O)/C(=C\c2ccc(-c3ccccc3C(=O)O)o2)C(=O)N(c2ccccc2)C1=S	x	4
50	CN(C1CCCC1)C1CCN(C(=O)Nc2ccc(Cl)cc2)CC1	1	-16
51	O=C(O)c1ccc(O)c(SCN2CCCCC2)c1	x	27
52	CCN(CC)c1ccc(-c2n[nH]c(=S)n2-c2ccccc2)cc1	113	-41
53	CCCCN(CC)S(=O)(=O)c1ccc2[nH]c(=O)cc(C(=O)NCCN3CCN(c4ccccc4F)CC3)c2c1	-3	-16
54	O=S(=O)(c1ccc(Br)cc1)c1ccc(Br)cc1	1	x
55	CCOC(=O)C1=C(CNCc2ccccc2Cl)NC(=O)NC1c1ccc2c(c1)OCO2 (configuration not stated)	-6	-23
56	O=C(CN(C(=O)C1CSC(=O)C1)c1ccccc1F)NC1CCCC1 (configuration not stated)	0	-57
57	O=C1CCCC2/C(=N/O)CCCC12 (configuration not stated)	-12	-12
58	O=C(c1cccc(F)c1)N1CCN(c2ccc3nncn3n2)CC1	12	0
59	CCCNC(C)C(=O)Nc1ccccc1C (configuration not stated)	-4&-15	9&-4
60	COc1ccc2c(CNCCc3ccccc3Cl)c(C(=O)O)[nH]c2c1	51	-10

no.	PV pol inh	PV pol inh intensity
46	103	108
47	100	107
48	103	96
49	97	103
50	104	99
51	154	175
52	99	91
53	100	102
54	103	107
55	102	96
56	101	100
57	103	107
58	101	103
59	99&103	100&103
60	102	103

# Further records
no.	structure	Mtb MbtI inh	Mtb MenB inh
61	Cc1cc(C(=O)N2CCN(c3ccccc3)CC2)c(C)o1	-11	-26
62	CN(C)c1ccc(CNC(=O)C(Cc2ccccc2)n2cccc2)cc1 (configuration not stated)	-7	8
63	O=C(CSc1ncnc2sccc12)c1ccc(S(=O)(=O)N2CCCC2)cc1	18	15
64	Cc1ccc(-n2ccnc2SCC(=O)c2ccc[nH]2)c(C)c1	-4	-1
65	NC(=O)CSc1nc(N)cc(N)n1	x	1
66	COC(=O)C1=C(C)Oc2oc(C)cc(=O)c2C1c1cccnc1 (configuration not stated)	x	-2
67	COC1CC(O[C@@H]2[C@H](C)[C@H](OC3OC(C)CC(N(C)C)C3OC(C)=O)[C@H](C)CC3(CO3)C(=O)[C@@H](C)C(OC(C)=O)[C@H](C)[C@H](C)OC(=O)[C@@H]2C)OC(C)C1OC(C)=O (some centres not stated)	3	1
68	COC(=O)C1CCCc2c1[nH]c1ccc(Cl)cc21 (configuration not stated)	0	-54
69	CCN1CCCC1CNS(=O)(=O)c1cc(-c2cc(C)no2)ccc1C (configuration not stated)	7	8
70	CC1CCN(C(=O)c2ccccc2NC(=O)c2cccnc2)CC1	-17	2
71	Cc1ccc(Nc2nnc(C(C)(C)C)c(=O)[nH]2)c(C)c1	-3	4
72	N#C/C(=C\c1ccc(-c2cccc(C(=O)O)c2)o1)C(=O)NC1CCCCC1	10	-279
73	O=c1ccccn1Cc1ccccc1F	-2	-11
74	CCC(CC)C(=O)Nc1nonc1-c1ccccc1	-15	-2
75	CC1(C)CC(=O)c2cc(OCC(=O)NCc3cccnc3)ccc2O1	117	-26

no.	PV pol inh	PV pol inh intensity
61	99	99
62	103	108
63	109	105
64	102	103
65	100	96
66	100	102
67	x	x
68	101	101
69	100	102
70	99	103
71	101	102
72	103	104
73	100	103
74	103	103
75	105	105

# Next part:
no.	structure	Mtb MbtI inh	Mtb MenB inh
76	Cc1occc1C(=O)NC1CCCc2ccccc21 (configuration not stated)	-12	-8
77	COC(=O)C1=C(C)N=c2s/c(=C3\C(=O)Nc4ccccc43)c(=O)n2C1c1ccccc1 (configuration not stated)	-2	-42
78	CC(C)NC(=O)NNc1ccc(-c2csnn2)cc1	10	17
79	O=C(CSc1ccc(Br)cc1)NC1CCCC1	-1	x
80	Cc1nc2sccn2c(=O)c1S(=O)(=O)NCC(C)c1ccccc1 (configuration not stated)	118	-7
81	CCCCNC(=O)C1CCCN(S(=O)(=O)c2c(C)noc2/C=C/c2cccs2)C1 (configuration not stated)	-5	-12
82	O=C(NCc1ccc(Cl)cc1)c1cccnc1SC(F)F	-3	14
83	COc1ccccc1C(=O)OCC(=O)N(C)Cc1ccccc1	0	-11

no.	PV pol inh	PV pol inh intensity
76	101	103
77	103	107
78	102	104
79	105	104
80	98	104
81	102	104
82	100	102
83	94	96
